Vaccinia inh: Vaccinia orthopox stage-specific inhibition; Vaccinia-infected cells, mCherry/Venus stage reporter fluorescence; active compounds read low; some inactives read as strong as hits; activity change (mCherry), % (no concentration beside the values); hit rate 0.01% among 89,000; AID 1053133;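 active = mCherry past -33% and 40 or more points under the early reporter, replicates agreeing; inconclusive = past -33% without that gap or agreement; tested in A549 cells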;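 note: scaled between vehicle wells and reference inhibitor wells; 23 nL library stock went into each well; one replicate is shown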
Vaccinia inh Venus: second read-out of Vaccinia inh, no call of its own (marks repeat the call); activity change (Venus), %; measured here: Venus reporter, other viral stage;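 negative = less Venus signal; first of two replicates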
* = called active by the depositor; ? = inconclusive; nt = not tested or not shown.

SMILES	Vaccinia inh	Vaccinia inh Venus
C[C@H]1CN([C@@H](C)CO)C(=O)c2cc(NC(=O)Nc3ccc(F)cc3)ccc2O[C@H]1CN(C)C(=O)Nc1ccccc1	2	4
COc1cccc(CNC(=O)C[C@H]2CC[C@H]3[C@@H](COc4ccc(NC(C)=O)cc4C(=O)N3C)O2)c1	-6	-3
CCNC(=O)[C@H]1[C@H](CO)[C@H]2Cn3c(ccc(-c4ccncc4)c3=O)[C@@H]1N2CC1CC1	9	15
C[C@H]1CN([C@@H](C)CO)S(=O)(=O)c2ccc(C#Cc3cccc(F)c3)cc2O[C@H]1CN(C)S(=O)(=O)c1cn(C)cn1	?	nt
Cc1ccc(S(=O)(=O)Nc2ccc3c(c2)C(=O)N([C@@H](C)CO)C[C@@H](C)[C@@H](CN(C)Cc2ccc(C(=O)O)cc2)OCCCC[C@H](C)O3)cc1	12	7
C[C@H](CO)N1C[C@H](C)[C@H](CN(C)Cc2ccc3c(c2)OCO3)Oc2ccc(NC(=O)C3CCCCC3)cc2CC1=O	-1	-4
COc1ccc2c3c(n(C)c2c1)[C@@H](CO)N(C)CC31CN(C(=O)CN2CCOCC2)C1	17	-5
C[C@@H]1CCCCO[C@@H](CN(C)C(=O)Nc2ccc3c(c2)OCO3)[C@@H](C)CN([C@@H](C)CO)C(=O)c2cc(NC(=O)NC3CCCCC3)ccc2O1	0	-1
COc1ccc(S(=O)(=O)N[C@H]2CC[C@@H](CC(=O)N3CCc4ccccc4C3)O[C@@H]2CO)cc1	-8	3
O=C(C[C@@H]1CC[C@H]2NC[C@@H](O)COC[C@@H]2O1)Nc1ccccc1	-1	-3
COc1ccc2c3c([nH]c2c1)[C@H](CO)N(Cc1nccs1)CC31CCN(C(=O)C2CCCC2)CC1	-1	9
CC(C)(C)[S@@](=O)N1Cc2cc(C(=O)NCC(F)(F)F)nc(-c3cccc(-c4cccc(F)c4)c3)c2[C@H]1CCO	-32	-5
CC(C)NC(=O)N(C)C[C@@H]1Oc2c(NS(=O)(=O)c3ccc(Cl)cc3)cccc2C(=O)N([C@H](C)CO)C[C@@H]1C	-1	5
Cc1ccc(S(=O)(=O)Nc2cccc3c2O[C@@H](CN(C)S(=O)(=O)c2cn(C)cn2)[C@H](C)CN([C@@H](C)CO)C3=O)cc1	16	15
COc1ccc2c3c([nH]c2c1)[C@H](CO)N(C(=O)c1cccc(F)c1)CC31CCN(C(=O)CC2CC2)CC1	-4	-14
COc1cccc(-c2ccc([C@@H]3[C@@H](CO)N4C(=O)CN(C(=O)NC(C)C)C[C@@H]34)cc2)c1	8	-8
C[C@@H]1CN([C@@H](C)CO)C(=O)c2cc(NS(C)(=O)=O)ccc2O[C@@H]1CN(C)C	12	4
CO[C@@H]1CN(C)C(=O)c2cc(NC(=O)C3CCOCC3)ccc2OC[C@@H](C)N(C(C)=O)C[C@@H]1C	-6	0
CC(C)NC(=O)N(C)C[C@@H]1OCCCC[C@@H](C)Oc2ccc(NC(=O)CCCN(C)C)cc2C(=O)N([C@@H](C)CO)C[C@@H]1C	29	4
COc1ccccc1S(=O)(=O)N[C@@H]1CC[C@@H](CCn2cc(C3CCCC3)nn2)O[C@@H]1CO	16	7
C[C@@H]1CCCCO[C@@H](CN(C)Cc2ccncc2)[C@H](C)CN([C@@H](C)CO)C(=O)c2cc(NS(=O)(=O)c3cccs3)ccc2O1	1	7
Cc1noc(C)c1S(=O)(=O)N(C)C[C@H]1Oc2ccc(NS(=O)(=O)c3ccc(Cl)cc3)cc2C(=O)N([C@@H](C)CO)C[C@H]1C	11	8
CC(=O)N(C)C[C@@H]1Oc2cc(-c3ccc(C#N)cc3)ccc2S(=O)(=O)N([C@@H](C)CO)C[C@@H]1C	1	0
Cc1noc(C)c1NC(=O)N(C)C[C@H]1OCCCC[C@@H](C)Oc2ccc(NS(=O)(=O)c3ccc(F)cc3)cc2C(=O)N([C@@H](C)CO)C[C@@H]1C	9	6
CO[C@H]1CN(C)C(=O)c2ccc(NC(=O)c3cnccn3)cc2OC[C@H](C)N(CC2CC2)C[C@H]1C	4	4
COc1cccc(S(=O)(=O)N[C@H]2C=C[C@H](CC(=O)NC3CCC3)O[C@@H]2CO)c1	9	6
Cc1ccc(S(=O)(=O)N(C)C[C@@H]2Oc3c(NC(=O)C4CCCCC4)cccc3C(=O)N([C@@H](C)CO)C[C@H]2C)cc1	4	-6
CCCNC(=O)N1CC(=O)N2[C@H](C1)[C@@H](c1ccc(C#Cc3ccc(F)cc3)cc1)[C@@H]2CO	?	nt
C[C@H]1CN([C@@H](C)CO)C(=O)c2c(c3ccccc3n2C)-c2ccccc2CO[C@H]1CN(C)S(C)(=O)=O	13	13
C[C@H](CO)N1C[C@H](C)[C@@H](CN(C)S(C)(=O)=O)Oc2ccc(NC(=O)CCCCCC(=O)Nc3ccccc3N)cc2CC1=O	12	7

Profiles as entered above. Order of values: Vaccinia inh	Vaccinia inh Venus
C[C@H](CO)N1C[C@H](C)[C@@H](CN(C)S(C)(=O)=O)Oc2ccc(NC(=O)CCCCCC(=O)Nc3ccccc3N)cc2CC1=O is entered as 12	7
COc1cccc(-c2ccc([C@@H]3[C@@H](CO)N4C(=O)CN(C(=O)NC(C)C)C[C@@H]34)cc2)c1 is entered as 8	-8
CO[C@@H]1CN(C)C(=O)c2cc(NC(=O)C3CCOCC3)ccc2OC[C@@H](C)N(C(C)=O)C[C@@H]1C is entered as -6	0

The listing continues.
SMILES	Vaccinia inh	Vaccinia inh Venus
CCCC#Cc1ccc2c(c1)O[C@H](CN(C)C(C)=O)[C@@H](C)CN([C@@H](C)CO)S2(=O)=O	-6	-4
C[C@H]1CN([C@@H](C)CO)C(=O)Cc2cc(NS(C)(=O)=O)ccc2O[C@@H]1CN(C)S(C)(=O)=O	-2	17
C[C@H]1CN([C@@H](C)CO)C(=O)c2cc(C#CCN(C)C)cnc2O[C@H]1CN(C)Cc1ccc(-c2ccccc2)cc1	?	nt
C[C@H](CO)N1C[C@H](C)[C@H](CN(C)C(=O)Nc2ccc(F)cc2)Oc2ccc(NC(=O)Cc3cn(C)c4ccccc34)cc2C1=O	9	-1
CN(C)CC#Cc1ccc([C@H]2[C@@H](CO)N3CCCCN(C(=O)C4CCC4)C[C@H]23)cc1	11	6
C[C@H](CO)N1C[C@H](C)[C@H](CN(C)S(=O)(=O)c2ccc(F)cc2)Oc2ccc(NC(=O)Nc3ccccc3)cc2C1=O	-1	5
COc1ccccc1-c1cccc(-c2nc(C(=O)Nc3nccs3)cc3c2[C@H](CCO)N(C(C)=O)C3)c1	?	nt
CCC(=O)Nc1ccc2c(c1)C(=O)N(C)[C@H]1CC[C@@H](CC(=O)O)O[C@@H]1CO2	-2	3
O=C(C1CCC1)N1C[C@@H]2[C@H](c3ccccc31)[C@@H](CO)N2C(=O)c1ccccc1F	3	17
C[C@@H]1CN([C@H](C)CO)C(=O)c2cccc(NS(=O)(=O)c3cn(C)cn3)c2O[C@@H]1CN(C)Cc1ccc(-c2ccccc2)cc1	10	12
C[C@@H]1CN([C@H](C)CO)C(=O)c2cc(C3=CCCC3)cnc2O[C@@H]1CN(C)C(=O)c1ccc2c(c1)OCO2	6	5
CO[C@H]1CN(C)C(=O)c2cc(NS(=O)(=O)CC(F)(F)F)ccc2OC[C@@H](C)N(C(=O)NC(C)C)C[C@H]1C	18	10
CC(=O)N(C)C[C@@H]1Oc2ncc(-c3ccccc3F)cc2C(=O)N([C@@H](C)CO)C[C@@H]1C	8	1
CCS(=O)(=O)N1CC2(C1)[C@H](c1ccccc1)[C@H](CO)N2CCC(F)(F)F	2	11
C[C@@H]1CCCCO[C@H](CN(C)Cc2ccc3c(c2)OCO3)[C@H](C)CN([C@H](C)CO)C(=O)c2cc(NC(=O)Nc3ccc4c(c3)OCO4)ccc2O1	?	nt

Entries from the list above that have a CF3 group:
SMILES	Vaccinia inh	Vaccinia inh Venus
CC(C)(C)[S@@](=O)N1Cc2cc(C(=O)NCC(F)(F)F)nc(-c3cccc(-c4cccc(F)c4)c3)c2[C@H]1CCO	-32	-5
CO[C@H]1CN(C)C(=O)c2cc(NS(=O)(=O)CC(F)(F)F)ccc2OC[C@@H](C)N(C(=O)NC(C)C)C[C@H]1C	18	10
CCS(=O)(=O)N1CC2(C1)[C@H](c1ccccc1)[C@H](CO)N2CCC(F)(F)F	2	11

Going on with the list:
SMILES	Vaccinia inh	Vaccinia inh Venus
C[C@@H]1CN([C@H](C)CO)C(=O)Cc2cc(NC(=O)Cc3cn(C)c4ccccc34)ccc2O[C@H]1CN(C)S(=O)(=O)c1ccccc1	10	4
CC(C)NC(=O)Nc1ccc2c(c1)C(=O)N([C@@H](C)CO)C[C@@H](C)[C@H](CN(C)C(=O)C1CCCCC1)OCCCC[C@@H](C)O2	-2	-2
C[C@@H]1CN([C@@H](C)CO)S(=O)(=O)c2ccc(-c3ccncc3)cc2O[C@H]1CN(C)C(=O)CC1CC1	8	10
C[C@@H]1CCCCO[C@H](CN(C)C(=O)C2CCCCC2)[C@@H](C)CN([C@@H](C)CO)C(=O)c2cc(NS(C)(=O)=O)ccc2O1	1	-2
CO[C@H]1CN(C)C(=O)c2ccc(NS(=O)(=O)c3ccccc3)cc2OC[C@H](C)N(Cc2nccs2)C[C@H]1C	2	0
Cc1noc(C)c1NC(=O)N[C@@H]1CC[C@H](CCNC(=O)C2CCC2)O[C@@H]1CO	-11	3
COc1ccc2c3c(n(C)c2c1)[C@@H](CO)N(Cc1ccccc1Cl)CC31CCN(C(=O)CN(C)C)CC1	?	nt
N#C[C@H]1[C@@H](c2ccccc2/C=C/c2ccccc2)[C@@H](CO)N1S(=O)(=O)c1ccc(F)cc1	-12	-8
CCCC(=O)Nc1ccc2c(c1)C(=O)N(C)[C@H]1CC[C@H](CC(=O)NCCc3ccncc3)O[C@@H]1CO2	12	0
CN(C)c1ccc2c(c1)[C@@H]1C[C@@H](CC(=O)N3CCc4ccccc4C3)O[C@@H](CO)[C@@H]1O2	-16	-12
CC(C)C(=O)Nc1ccc2c(c1)C(=O)N(C)[C@H]1CC[C@H](CC(=O)NCc3ccc(F)cc3)O[C@H]1CO2	0	-3
C[C@H]1CN([C@@H](C)CO)C(=O)c2cc(-c3ccccc3F)cnc2O[C@H]1CN(C)C(=O)NC1CCCCC1	-1	-7
CC(C)NC(=O)N1C[C@@H]2[C@H](c3ccccc31)[C@H](CO)N2C(=O)Nc1cccc(F)c1	9	14
Cc1ccc(S(=O)(=O)Nc2ccc3c(c2)CC(=O)N([C@@H](C)CO)C[C@H](C)[C@H](CN(C)S(=O)(=O)c2ccc(C)cc2)O3)cc1	-13	-4
COc1ccc(S(=O)(=O)Nc2ccc3c(c2)C(=O)N([C@@H](C)CO)C[C@H](C)[C@H](CN(C)S(=O)(=O)c2ccc(Cl)cc2)OCCCC[C@H](C)O3)cc1	-27	-18
C[C@@H]1CCCCO[C@H](CN(C)C(=O)Nc2ccc(F)cc2)[C@@H](C)CN([C@H](C)CO)C(=O)c2cc(NS(C)(=O)=O)ccc2O1	14	9
O=C(C[C@@H]1CC[C@@H](NS(=O)(=O)c2ccc(F)cc2)[C@@H](CO)O1)N1CCc2ccccc2C1	3	1
COc1ccc(-c2ccc([C@H]3[C@H](C#N)N(C(=O)C4CC4)[C@H]3CO)cc2)cc1	-12	-3
C[C@@H]1CN([C@@H](C)CO)C(=O)c2cc(NS(=O)(=O)c3ccc(Cl)cc3)ccc2O[C@@H](C)CCCCO[C@@H]1CN(C)C(=O)Nc1ccccc1	2	-5
c1ccc(CN2C[C@@H]3N[C@H](C2)C3c2ccc(-c3ccncc3)cc2)cc1 (stereo partly specified)	?	-15
CCC(=O)N(C)C[C@@H]1Oc2cc(C#CCOC)ccc2S(=O)(=O)N([C@@H](C)CO)C[C@@H]1C	-7	-12
C[C@@H]1CN([C@@H](C)CO)C(=O)Cc2cc(NC(=O)c3ccncc3)ccc2O[C@@H]1CN(C)CC1CC1	7	-3
N#C[C@H]1[C@@H](c2ccc(C#Cc3ccccc3F)cc2)[C@@H](CO)N1C(=O)C1CCC1	19	22
C/C=C/c1ccc([C@H]2[C@@H](CO)N3C(=O)CN(C(=O)c4ccc(F)cc4)C[C@@H]23)cc1	11	3
CN1C(=O)c2cc(NC(=O)c3ccc(F)cc3)ccc2OC[C@H]2O[C@H](CC(=O)N3CCOCC3)CC[C@@H]21	11	18
O=C(C[C@H]1CC[C@@H](NC(=O)C2CCC2)[C@@H](CO)O1)NC1CCCCC1	1	-1
C[C@H](CO)N1C[C@H](C)[C@@H](CN(C)C(=O)c2ccccc2)Oc2ncc(C3=CCCCC3)cc2C1=O	-4	-10
O=C(c1ccc(F)cc1)N1CCCCN2[C@H](CO)[C@H](c3ccc(-c4ccccc4)cc3)[C@@H]2C1	?	nt
C[C@H](CO)N1C[C@H](C)[C@H](CN(C)C(=O)Nc2ccc3c(c2)OCO3)OCCCC[C@H](C)Oc2ccc(NC(=O)CCC(F)(F)F)cc2C1=O	-5	3
C[C@H](CO)N1C[C@H](C)[C@H](CN(C)C(=O)Cc2ccccc2)Oc2ncc(C#CC3(O)CCCC3)cc2C1=O	7	-7

For convenience, 4 of the compounds above:
SMILES	Vaccinia inh	Vaccinia inh Venus
C[C@H]1CN([C@@H](C)CO)C(=O)c2cc(NC(=O)Nc3ccc(F)cc3)ccc2O[C@H]1CN(C)C(=O)Nc1ccccc1	2	4
COc1cccc(CNC(=O)C[C@H]2CC[C@H]3[C@@H](COc4ccc(NC(C)=O)cc4C(=O)N3C)O2)c1	-6	-3
CCNC(=O)[C@H]1[C@H](CO)[C@H]2Cn3c(ccc(-c4ccncc4)c3=O)[C@@H]1N2CC1CC1	9	15
C[C@H]1CN([C@@H](C)CO)S(=O)(=O)c2ccc(C#Cc3cccc(F)c3)cc2O[C@H]1CN(C)S(=O)(=O)c1cn(C)cn1	?	nt

Only part of the results is shown; the hit share may differ from the screen's.
